VACV Venus inh: inhibitors of vaccinia virus (Venus reporter); Potency, µM (series often up to 36.5 µM), without a hit: at the highest dose activity change, negative = inhibition, most hits filed as inhibitors; hit rate 0.46% among 330,000; AID 720580; Vaccinia virus Venus reporter expression, fluorescence; active means well fitted inhibition curve with a large enough effect; inconclusive means small, poorly fitted or top-dose-only effect; inactive means no such curve, though single readings can be large or run the other way; tested in A549 cells; further: nearly all actives have a fitted effect of over 30% in size; inactives centre near -10
VACV mCherry inh: vaccinia inhibition (mCherry reporter); Vaccinia virus mCherry reporter infection, fluorescence; about a quarter of the inactives have no number; Potency, µM (series often up to 36.5 µM), without a hit: at the highest dose activity change, negative = inhibition, usual class: inhibitors; hit rate 0.63% among 310,000; active = well fitted inhibition curve with a large enough effect; inconclusive = small, poorly fitted or top-dose-only effect; inactive = no such curve, though single readings can be large or run the other way; tested in A549 cells; further: nearly all actives have a fitted effect of over 35% in size; inactives centre near -10
The depositor's hits bear a star; i = inactive; ? = inconclusive; nt = not tested or not shown; & = joins results of further samples; [ ] = remark or other dose. On the % scale 0 is the no-effect control and ±100 the full control effect; potency means the concentration at half of the fitted maximal effect.

SMILES | VACV Venus inh | VACV mCherry inh
Cc1onc(-c2c(F)cccc2Cl)c1C(=O)NC1CCCCCC1 | 5% | -20%
O=C(OCc1cn([C@@H]2CN(Cc3cccs3)[C@@H](c3ccc(Cl)cc3)C[C@H]2O)nn1)c1ccccc1 | -20% | -5%
CCCc1nnc(NC(=O)CCC(=O)N2CCN(c3nc(C)cc(C)n3)CC2)s1 | 5% | -3%
O=C(CSc1ncc(C(F)(F)F)cc1Cl)N1CCN(S(=O)(=O)c2ccccc2)CC1 | ? | nt
O=C(OCc1ccc(COC(=O)c2cccnc2Cl)cc1)c1cccnc1Cl | -2% | -1%
CCC(CO)Oc1cc(NCc2ccc(Cl)cc2Cl)c2ncn(C(C)C)c2c1 (configuration not stated) | ? | ?
CCOc1cc(C(=O)NC(=S)Nc2cccnc2)cc(OCC)c1OCC | -20% | -2%
COc1ccc(C(=O)COC(=O)CNC(=O)c2ccccc2)cc1F | -3% | -19%
Cn1cc[nH]c1=S | -15%&-7%&0% | -20%&6%&-7%
O=C(Nc1ccnn1C1CCN(Cc2cccc(OCCO)c2)CC1)C1CC1 | -14% | -14%
COc1ccc(C2/C=C\CN(S(=O)(=O)c3ccc(-c4ccccc4)cc3)CC(=O)N2Cc2ccc(F)cc2)cc1 (configuration not stated) | -3% | 17%
C[C@@H]1CN([C@@H](C)CO)C(=O)CCCn2nncc2CO[C@@H]1CN(C)C(=O)Oc1ccccc1 | -4% | ?
Cc1oc(-c2ccccc2)cc1C(=O)Nc1cccc(/C=C\C(=O)O)c1 | -6% | i
Cc1ccc2c(c1)=C(c1ccccc1)N(O)CC(=O)N=2 | -1% | 3%
COC(=O)c1ccc(Nc2c([N+](=O)[O-])c(=O)oc3ccccc23)cc1 | -9% | i
O=C(CSc1nc2ccccc2o1)c1cc2ccccc2oc1=O | -4% | nt
O=S(=O)(c1ccc(NC(=S)Nc2ccc(OC(F)F)cc2)cc1)N1CCOCC1 | -17% | -2%
CCCCNc1sc(S(=O)(=O)CC)nc1S(=O)(=O)c1ccc(C)cc1 | -11% | -4%
Cc1ccc(N(NC(=O)C(C)(C)O)C(=O)c2ccccc2)cc1C | 9% | nt
CCOc1ccc(CCNCc2c(C(=O)O)n(Cc3ccc(C)cc3)c3cc(OC)ccc23)cc1 | -19% | -28%
N#CC(C#N)=C(Nc1ccccc1)c1ccccc1 | -1% | i
COc1ccc(-n2c(C)c(C(C)=O)c(C(C)=O)c2C)cc1 | -6% | -14%
O=C(O)c1cc2nc3c(c(C(F)(F)F)n2n1)CCc1ccccc1-3 | 6% | nt
Cc1cc(-c2ccccc2)nc(-c2ccccc2)c1C | -15% | -11%
COc1ccc(OC)c(N(CC(=O)Nc2cccnc2)S(C)(=O)=O)c1 | 2% | -10%
CCCCC(=O)c1c(C)cc(C)[nH]c1=O | -7% | i
O=C(N/N=C/c1ccsc1)c1cc(-c2ccncc2)nc2ccccc12 | -28% | ?
COC(=O)CNC(=O)c1sc2ncn(CC(=O)Nc3ccc(C)c(Cl)c3)c(=O)c2c1C | -4% | -12%
CCOC(=O)c1sc(Nc2ccc(F)cc2)nc1C | -7% | ?
COc1ccc(C(=O)Nc2nc(C)cs2)cc1S(=O)(=O)N1CCCC1 | -10% | -9%
Cc1ccc(C)c(NC(=O)CN(C)C(=O)CC2OC(=O)c3ccccc32)c1 (configuration not stated) | -18% | -24%
CCCNC(=O)CSc1nccn1Cc1ccc(OC)cc1 | -7% | -8%
CC(=O)c1ccc(OCCCC(=O)Nc2cc(S(=O)(=O)N3CCCCC3)ccc2C)cc1 | -17% | -4%
CC(=O)Oc1ccc2ccc3ccc(C(C)=O)cc3c2c1 | -9% | ?
CCc1ccc(NC(=O)C(C)OC(=O)CCC(=O)c2cccs2)cc1 (configuration not stated) | -6% | i
CC(C)Cn1c(SCC(=O)Nc2cc(Cl)c(Cl)cc2Cl)nc(O)cc1=O | -6% | i
COc1ccc(CNc2nc3c(c(=O)[nH]c(=O)n3C)n2Cc2ccccc2C)cc1 | -22% | -26%
CCc1nc(SCC(=O)NC2CCCC2)c2c(=O)n(C)c(=O)n(C)c2n1 | -3% | -11%
Cc1ccc2c(COC(=O)C3=COCCO3)cc(=O)oc2c1 | -8% | -3%
Cc1ccc2c(cnn2C(=O)CCCC(=O)NCc2ccc(Cl)cc2)c1 | -19% | -22%
Cc1nnc(SCc2cccc([N+](=O)[O-])c2)[nH]c1=O | 0% | i
Cc1c(C(c2cccs2)c2c(C)n(C)n(-c3ccccc3)c2=O)c(=O)n(-c2ccccc2)n1C | 2% | -13%
CC(Oc1ccc(Cl)cc1Cl)C(=O)NC(=S)N1CCc2ccccc21 (configuration not stated) | -21% | -16%
Cc1ccc(C(=O)N/C(=C\c2cccs2)C(=O)NCCCN2CCOCC2)cc1 | -11% | -11%
CN(Cc1ccccc1)C(=O)c1cccc(NC(=O)Cc2ccc(NC(=O)C3CCCN(C(=O)C4CCC4)C3)cc2)c1 (configuration not stated) | -14% | 8%
S=C(NC1CCCCC1)NC1CC2C=CC1C2 (configuration not stated) | -15% | i
Cc1cc2c(cc1S(=O)(=O)NCc1ccccc1)OCC(=O)N2 | -9%&-5% | -7%
COc1cc(/C=C/C(=O)NCCn2c(C)cc3ccccc32)cc(OC)c1OC | -20% | ?
O=C(Nc1ccccc1)c1nc2ccccc2s1 | -9% | i
CC1(C)C2CCC1(C)C(OC(=O)C[n+]1ccccc1N)C2 (configuration not stated) | -14% | i
COc1ccc(-c2nnc(SCc3ccccn3)n2C)cc1 | -9% | -20%
NC(=O)c1ccc[n+](CC(=O)NCc2ccc(Cl)cc2)c1 | -4% | -2%
COc1ccc(NS(=O)(=O)c2ccc(N3CCOCC3)c(NC(=O)c3ccccc3Br)c2)cc1 | -10% | -13%
CCc1nnc(NC(=O)Cc2sc(C)nc2-c2ccc(C)cc2)s1 | -13% | -13%
COc1cc(OC)cc(C2=NCCN2)c1 | 3% | -3%
CN(C(=O)Cn1c(=O)n(Cc2ccc(C(=O)NCc3ccc4c(c3)OCO4)cc2)c(=O)c2ccccc21)c1ccccc1 | 1% | -9%
Cc1ccc(-c2nn(CC(=O)NCc3ccco3)c(=O)c3ccccc23)cc1 | -19% | nt
CC1(C(=O)NS(=O)(=O)c2cccs2)CCN1C(=O)CC1CCCCC1 (configuration not stated) | -5% | -2%
CCCOc1ccc(/C(O)=C2/C(=O)C(=O)N(CCCn3ccnc3)C2c2ccc(C)o2)cc1 (configuration not stated) | -1% | -11%
COc1ccc(CNC(=O)Cn2ccc3cc(S(=O)(=O)N4CCCCC4)ccc32)cc1OC | -6% | -12%
More compounds follow:
SMILES | VACV Venus inh | VACV mCherry inh
COc1ccc(-c2nc(CCNC(=O)Cc3ccc(F)cc3)cs2)cc1 | -14% | -9%
COc1cnc(-c2ccccn2)nc1Oc1ccccc1 | 1% | -12%
Clc1ccc(C2NCCc3sccc32)cc1 (configuration not stated) | 10% | -15%
COc1ccc(NC(=O)C#Cc2ccccc2)cc1OC | ? | ?
CCN(CC)S(=O)(=O)c1ccc(OC)c(NC(=O)COc2ccc3c(C)cc(=O)oc3c2)c1 | -20% | i
COc1ccc(S(=O)(=O)N2CCN(C(=O)CCCN3C(=O)NC4(CCCC4)C3=O)CC2)cc1 | -11% | -23%
Cc1ccc(CNC(=O)N2CCN(c3ccc(C)cc3)CC2)cc1 | -15% | -12%
O=C(Nc1ccc(Cl)cc1)c1ccc(-c2ccccn2)s1 | -22%[7.34 µM] | -7%[7.34 µM]
C=CCOc1ccc(-c2nc3c(c(=O)[nH]c(=O)n3CCC)n2CCCC)cc1 | -3% | -4%
Cc1ccc(/C(O)=C2\C(=O)C(=O)N(CC(C)O)C2c2ccccn2)cc1 (configuration not stated) | -4% | -5%
Cn1cc(C(=O)N/N=C/c2cccc([N+](=O)[O-])c2)c2ccccc21 | -14% | ?
O=C(CN1CCCCCC1)Nc1nc2ccccc2s1 | -6% | i
O=C(Sc1ccccc1)c1cccc(Cn2cc(C(F)(F)F)ccc2=O)c1 | -1%[7.34 µM] | -3%[7.34 µM]
COc1ccc(Cl)cc1S(=O)(=O)N1CCC(C(=O)NC2CC2)CC1 | 0% | -5%
NC(=O)Cc1ccc2sc(-c3ccccc3)nc2c1 | -16% | i
CCNC(=O)CC1C(=O)N(c2ccccc2)C(=O)N1Cc1ccc(F)cc1 (configuration not stated) | 1% | -2%
O=C(Nc1ccc(-c2cnco2)cc1)c1ccccc1 | 20% | 1%
COC(=O)C1=C(C(=O)c2ccccc2)C(c2ccccc2)n2nnnc2N1 (configuration not stated) | -14% | -12%
CCN(CC)CCN(Cc1cc2cc3c(cc2[nH]c1=O)OCCO3)C(=S)NCCOC | -11% | -25%
CCCCn1c(N)c(N(CC(C)C)C(=O)C2CC(=O)N(c3ccc(CC)cc3)C2)c(=O)[nH]c1=O (configuration not stated) | -6% | -14%
CC(=O)N1CCN(Cc2cc(=O)oc3cc(C)cc(C)c23)CC1 | -10% | 9%
CC(=O)Nc1ccc(Sc2ccc([N+](=O)[O-])o2)cc1 | -3% | -30%
N#Cc1cccc(NC(=O)CN2C(=O)NC3(CCCCCC3)C2=O)c1 | -10% | -14%
O=C1CN(S(=O)(=O)c2cc(Cl)ccc2Cl)CCN1 | -16% | i

Retrieved one by one from the entries so far (4):
SMILES | VACV Venus inh | VACV mCherry inh
O=C(Sc1ccccc1)c1cccc(Cn2cc(C(F)(F)F)ccc2=O)c1 | -1%[7.34 µM] | -3%[7.34 µM]
O=C(Nc1ccc(-c2cnco2)cc1)c1ccccc1 | 20% | 1%
CCN(CC)CCN(Cc1cc2cc3c(cc2[nH]c1=O)OCCO3)C(=S)NCCOC | -11% | -25%
O=C1CN(S(=O)(=O)c2cc(Cl)ccc2Cl)CCN1 | -16% | i

In a second layout: 3 of the compounds above
> CCCCn1c(N)c(N(CC(C)C)C(=O)C2CC(=O)N(c3ccc(CC)cc3)C2)c(=O)[nH]c1=O (configuration not stated)
- VACV Venus inh = -6%
- VACV mCherry inh = -14%

> O=C(Nc1ccc(-c2cnco2)cc1)c1ccccc1
- VACV Venus inh = 20%
- VACV mCherry inh = 1%

> COC(=O)C1=C(C(=O)c2ccccc2)C(c2ccccc2)n2nnnc2N1 (configuration not stated)
- VACV Venus inh = -14%
- VACV mCherry inh = -12%

The listing continues.
SMILES | VACV Venus inh | VACV mCherry inh
CCN(CC)C(=O)C1CCC(CNS(=O)(=O)c2cccc3cccnc23)CC1 (configuration not stated) | 1% | i
CC1(C(=O)NS(=O)(=O)c2ccccc2)CCN1C(=O)c1ccc(C2CCCCC2)cc1 (configuration not stated) | -6% | 49%[activator]
CCOc1ccc2nc(NC(=O)C34CC5CC(CC(NC(C)=O)(C5)C3)C4)sc2c1 | -22% | -23%
CCc1ccc(OC(C)C(=O)Nc2ccccc2C(=O)N2CCOCC2)cc1 (configuration not stated) | -11% | i
NC(=O)c1ncc(C(F)(F)F)cc1Oc1cccnc1 | 0% | 6%
NC(=O)c1ccc2c(=O)n3c(-c4cccs4)csc3nc2c1 | -21% | -11%
O=C(NCc1ccccc1)c1cccc2c(-c3ccc(F)c(F)c3)coc12 | -7% | -6%
CCCCCC(=O)Cc1cc(O)cc2c1C(=O)Oc1cc(O)c(C(=O)O)c(CCCCC)c1O2 | -8% | -4%
O=C(c1cc(-c2cccc(Cl)c2)on1)N1CCCC1 | -14% | 18%
N#Cc1c(-c2ccco2)c2c([nH]c1=S)CCCC2 | 11% | nt
O=C(COC(=O)c1ccc2c(c1)S(=O)(=O)c1ccccc1C2=O)NC1CC1 | -10% | i
COc1ccc2c(c1)cc(C(=O)N[C@H](C(=O)N1CCC[C@H]1C(=O)O)C(C)C)n2C | 7% | 11%

Exported with values under each structure: part of the list above.
Value order: VACV Venus inh | VACV mCherry inh
- NC(=O)c1ccc2c(=O)n3c(-c4cccs4)csc3nc2c1
→ -21% | -11%
- O=C(NCc1ccccc1)c1cccc2c(-c3ccc(F)c(F)c3)coc12
→ -7% | -6%

(continued)
SMILES | VACV Venus inh | VACV mCherry inh
CCN1C(=O)/C(=C2/Sc3ccccc3N2CC)S/C1=N\c1ncn[nH]1 | ? | ?
COc1cccc(CCNC(=O)Cn2c(-c3cccs3)cc3ccccc32)c1 | -11% | -5%
Cc1ccn2cc(C34CC5CC(CC(C5)C3)C4)nc2c1 | -11% | i
Cc1cc2nn(-c3cccc4ccccc34)nc2cc1N | -2% | -9%
CCCCC1CC2=C(C(=O)OC(C)(C)O2)C(c2cccc3ccccc23)O1 (configuration not stated) | -3% | i
Cc1cc(C)cc(NC2=NCC(=O)N2Cc2ccccc2)c1 | -20% | i
CCOC(=O)c1ccc(NC(=O)CC2COc3ccccc3O2)cc1 (configuration not stated) | ? | nt
O=C(C[C@@H]1CC[C@@H]2[C@H](COC[C@H](O)CN2S(=O)(=O)c2ccccc2)O1)Nc1ccccc1 | -5% | 12%
CCN(CCC#N)c1ccc(/C=N/Nc2nc(C)cc(=O)[nH]2)c(C)c1 | -18% | -4%
O=c1c2oc3ccccc3c2ncn1Cc1ccccc1F | -11% | -13%

Record cards, from the list above. Values in the order: VACV Venus inh | VACV mCherry inh
Shown for Cc1ccc(CNC(=O)N2CCN(c3ccc(C)cc3)CC2)cc1 → -15% | -12%
Shown for O=C(O)c1cc2nc3c(c(C(F)(F)F)n2n1)CCc1ccccc1-3 → 6% | nt
Shown for O=S(=O)(c1ccc(NC(=S)Nc2ccc(OC(F)F)cc2)cc1)N1CCOCC1 → -17% | -2%
Shown for Cc1cc(-c2ccccc2)nc(-c2ccccc2)c1C → -15% | -11%
